Bioassay records: PubChem BioAssay, Broad Institute
Tgondii IFNg: blocks Toxoplasma gondii growth in the presence of IFN-gamma. actives 3.8% (n = 69,000). Toxoplasma gondii growth in IFN-gamma-treated host cells; hits give low values; reference of the scale not given here. activity change, negative = inhibition, %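 (about 20 µM by stock and volumes)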;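 active means below -70%; inconclusive means fit judged invalid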;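 further: host cells are HeLa cells infected with Toxoplasma gondii; parasite growth read as luciferase light; one replicate is shown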
An asterisk follows results filed as active; i = inactive; ? = inconclusive. Only part of the results is shown (hit frequency here may not be typical).

compound | Tgondii IFNg
C[C@@H]1CN([C@@H](C)CO)S(=O)(=O)c2ccc(-c3cncnc3)cc2O[C@H]1CN(C)C(=O)NC1CCCC1 | -50
Cc1ccccc1CCC1CCCN(CC(=O)NC2CC2)C1 (stereo not given) | 11
COC(=O)[C@@H]1C[C@@H](N(C)C)CN1C(=O)c1cccc2cc(C)oc12 | 5
C/C(=C\c1ccco1)CN1CCOC(CCNS(C)(=O)=O)C1 (stereo not given) | -23
NCC[C@H]1CC[C@@H](NC(=O)NC2CCCCC2)[C@@H](CO)O1 | -33
Cc1cccc(CO[C@@H]2CC[C@@H]3[C@@H]2OCCN3c2ncccn2)n1 | 50
Fc1cccc(CN2CCN(Cc3cc(CN4CCCC4)cs3)CC2)c1 | -14
Clc1ccc(SCc2ccsc2-c2ncns2)cc1 | -77*
COc1c(F)cccc1C(=O)N1CCN(c2ncccc2C)CC1 | 2
C[C@H](CO)N1C[C@H](C)[C@H](CN(C)Cc2ccc3c(c2)OCCN3C)OCc2cnnn2CCCC1=O | 263

Remaining list, next part.
compound | Tgondii IFNg
CCn1c(C2CCN(Cc3cccc(C(=O)OC)n3)CC2)nn(C)c1=O | 8
Cc1ccccc1CCNC(=O)c1ccc(-c2nc(CN3CCN(c4ccccc4)CC3)c(C)o2)cc1 | -71*
COc1ccc([C@@H]2C[C@H](OC(=O)Cn3ncc4ccccc4c3=O)C(=O)N2C)cc1 | -1
COc1ccc(Cl)c(OC)c1C(=O)NC(=O)Nc1c(C)cccc1C | 87
COCCN1CCN(C(=O)c2cscn2)Cc2cccnc21 | 3
CCc1[nH]nc2c1C(c1ccncc1Cl)CC(=O)N2 (stereo not given) | -51
CCOc1ccc(NC(=O)CN2C(=O)CCc3cc(S(=O)(=O)N4CCCCC4)ccc32)cc1 | -26
CC(C)(C)c1cc(CN2CCc3[nH]cnc3C2Cc2ccccc2)[nH]n1 (stereo not given) | 2
Cc1ccccc1NC(=O)N1C[C@@H](O)[C@H](NC2Cc3ccccc3C2)C1 | 12
Cc1nn(Cc2nc(-c3ccc(NC(=O)C4CCC4)cc3)oc2C)c(C)c1C | 14

The listing continues:
compound | Tgondii IFNg
COc1ccc(-c2ccc(NC(=O)C3CC3)nc2)c2cccnc12 | -3
COc1ccccc1C#Cc1ccc([C@@H]2[C@H](C#N)N(C(=O)C3CCC3)[C@H]2CO)cc1 | -1
COc1ccc(C(=O)N2CCC3(CC2)NC(=O)c2cc(F)ccc2N3C)cc1OC | 18
CC(NS(=O)(=O)c1ccc2c(c1)n(C)c(=O)n2C)c1nc2ccccc2s1 (stereo not given) | 19
COCCN1c2ccccc2[C@H]2CN(S(=O)(=O)C3CC3)CC[C@@H]21 | 9
O=S(=O)(c1ccccc1)N1CCN(Cc2cnc(-c3ccccn3)nc2)CC1 | 9
CC(Cc1cccs1)NC(=O)Cn1ccc2ccc(F)cc21 (stereo not given) | 13
CC1=C(C(=O)Nc2ccc(F)cc2C)C2(CCN(S(C)(=O)=O)CC2)OC1=O | 33
COc1ccc(NC(=O)Cn2ncc3c(N4CCCCCC4)ncnc32)cc1 | 29
CO[C@@H]1CCN(Cc2cc(C)on2)C[C@@H]1Cc1cccc(C)c1 | -3

No new results follow: an excerpt of the list.
compound | Tgondii IFNg
COc1ccc([C@@H]2C[C@H](OC(=O)Cn3ncc4ccccc4c3=O)C(=O)N2C)cc1 | -1
COc1ccc(Cl)c(OC)c1C(=O)NC(=O)Nc1c(C)cccc1C | 87
COCCN1CCN(C(=O)c2cscn2)Cc2cccnc21 | 3
CCc1[nH]nc2c1C(c1ccncc1Cl)CC(=O)N2 (stereo not given) | -51
CCOc1ccc(NC(=O)CN2C(=O)CCc3cc(S(=O)(=O)N4CCCCC4)ccc32)cc1 | -26
CC(C)(C)c1cc(CN2CCc3[nH]cnc3C2Cc2ccccc2)[nH]n1 (stereo not given) | 2
Cc1ccccc1NC(=O)N1C[C@@H](O)[C@H](NC2Cc3ccccc3C2)C1 | 12
Cc1nn(Cc2nc(-c3ccc(NC(=O)C4CCC4)cc3)oc2C)c(C)c1C | 14
COc1ccc(-c2ccc(NC(=O)C3CC3)nc2)c2cccnc12 | -3
COc1ccccc1C#Cc1ccc([C@@H]2[C@H](C#N)N(C(=O)C3CCC3)[C@H]2CO)cc1 | -1
COc1ccc(C(=O)N2CCC3(CC2)NC(=O)c2cc(F)ccc2N3C)cc1OC | 18
CC(NS(=O)(=O)c1ccc2c(c1)n(C)c(=O)n2C)c1nc2ccccc2s1 (stereo not given) | 19
COCCN1c2ccccc2[C@H]2CN(S(=O)(=O)C3CC3)CC[C@@H]21 | 9
O=S(=O)(c1ccccc1)N1CCN(Cc2cnc(-c3ccccn3)nc2)CC1 | 9
CC(Cc1cccs1)NC(=O)Cn1ccc2ccc(F)cc21 (stereo not given) | 13

Other compounds.
compound | Tgondii IFNg
Cc1cccc(NC(=O)C(CC(C)C)NS(=O)(=O)c2ccc3[nH]c(=O)ccc3c2)c1C (stereo not given) | 34
O=C(Nc1cccc(Cl)c1)N[C@H]1CC[C@@H](CCn2cc(Cc3ccccc3)nn2)O[C@H]1CO | -68
COc1ccc(-c2ccc3c(c2)[C@@H]2[C@@H](CCN2C(=O)c2cccc(F)c2)[C@@H](CO)N3)cc1 | -41
COC(=O)CSc1cc(C(F)(F)F)nc2ccccc12 | 69
Cc1ccc(C(=O)N2CCc3[nH]cnc3C23CCCCC3)s1 | 129
Cc1ccc(CNC2=NCCNC23CCN(S(=O)(=O)c2ccc(C)cc2C)CC3)cc1 | -28
Cc1cccc(CN(Cc2ccccc2)C(=O)c2c(C)nc3c(C)cccn23)n1 | -3
CC1(C)Cc2cccc(C(=O)NCC3COc4ccccc4O3)c2O1 (stereo not given) | ?
COc1ncccc1-c1cc(N)nc(N2CCCC2)n1 | -5
O=C1N(Cc2ccccn2)C(=O)C2(CCN(Cc3ccc4ncccc4c3)CC2)N1Cc1ccccc1 | -6

Next part
compound | Tgondii IFNg
CCc1cccc(NC(=O)CN2CCC3(CC2)N=C(c2cccc(F)c2)C(=O)N3)c1 | -2
Cc1ncc(-c2ccncc2)c(-c2ccc(CNC(=O)C3CCOC3)cc2)n1 (stereo not given) | -39
COc1ccc2[nH]c3c(c2c1)CCn1c-3nc2ccccc2c1=O | 394
COCCO[C@@H]1C[C@@H]2CN(C(=O)c3cnc(C)cn3)CCN2C1 | 7
CCN1c2cc(C)ccc2-n2cccc2C12CCN(S(=O)(=O)c1ccc(C)c(C)c1)CC2 | -112*
CC(Cc1ccsc1)Nc1ccnc(C(=O)NC2CC2)c1 (stereo not given) | 18
COC(=O)c1c(C(=O)OC)c2n(c1C)Cc1ccccc1C2 | 13
CC(C)CN1C(=O)CCc2cc(NC(=O)C3CCCCC3)ccc21 | -37
CN(C)C(=O)C1(Cc2cccc(-c3ccccc3)c2)CN(C(=O)CCn2cnnn2)CCO1 (stereo not given) | -4
C=CC(=O)NCc1ccccc1 | 11

The list continues.
compound | Tgondii IFNg
Cn1c(Br)nc2ccccc21 | 11
COc1ccc2c3c([nH]c2c1)[C@@H](CO)N(C(=O)Nc1ccc(F)cc1)CC31CCN(C(=O)Nc2ccc3c(c2)OCO3)CC1 | i
CCOCC(=O)N1CCCCC1CCc1ccc(O)cc1 (stereo not given) | 1
Cc1cccc(-c2nnc(-c3nc(NCc4ccc(F)cc4)c4ccccc4n3)o2)c1 | -59
CSc1nsc(SC)c1C(=O)Nc1nn(C)c2cccc(F)c12 | 20
Cc1onc(-c2ccccc2)c1CNS(=O)(=O)c1c(Cl)nc2sccn12 | -22
Cc1cc(C)c(NC(=O)c2cccc(CN3CCCC(C(N)=O)C3)c2)c(C)c1 (stereo not given) | -46
CCOC(=O)c1ccc2nc(NC(=O)c3ccc4ccccc4n3)sc2c1 | 200
CCCCC(=O)N1CCC2(CC1)CN(CC(=O)OCC)CCN2C | 5
O=C(Oc1ccccc1)N1CCCCC1 | -22

(list continues)
compound | Tgondii IFNg
CN1CCCN(CC(=O)N2CCN(CC3CCCO3)CC2)CC1 (stereo not given) | 8
CCCc1ccc(C(=O)N(C)Cc2cc(C)[nH]n2)o1 | 11
CCc1c(C)cc(C(=O)N2CCc3[nH]nc(-c4ccccc4)c3C2)c(=O)n1C | -1
Cc1nc(N2CCOCC2)nc2c1COCC21CCN(c2ncc(F)cn2)C1 (stereo not given) | -1
Cc1onc(-c2c(Cl)cccc2Cl)c1C(=O)OCc1ccc2c(c1)OCO2 | -13
Cc1cc(C)n(CC(C)NCc2nc(C3CCCCC3)no2)n1 (stereo not given) | -2
CC(C)CCCC(C)[C@H]1CCC2C3C(=O)C=C4C[C@@H](O)CC[C@]4(C)C3CC[C@@]21C (stereo not given in full) | -18
C=CCN(Cc1ccccn1)C(=O)C(=O)N1CCCCCC1 | 3
Cc1cc2cc(C)c3nnc(SCC(=O)N4CCc5ccccc5C4)n3c2cc1C | -37
COc1cccc(C2=NN(C(=O)C(C)C)C(O)(C(F)(F)F)C2)c1 (stereo not given) | 0

(list continues)
compound,Tgondii IFNg
CO[C@@H]1CN(C)C(=O)c2cc(NC(=O)CC(F)(F)F)ccc2OC[C@H](C)N(CC2CC2)C[C@@H]1C,60
CC(C)=CC(=O)NCCC1CN(Cc2cnc(C)nc2)CCO1 (stereo not given),-3
CC1CCCN(C(=O)c2csc(-c3ccc(N4CCCC4)nc3)n2)C1 (stereo not given),5
O=C1CCC2(CCCN(Cc3ccsc3)CC2)N1 (stereo not given),93
Cc1noc(C)c1-n1c(C2CCCN(C)C2)n[nH]c1=O (stereo not given),-1
COc1ccc(C(=O)Nc2ccc(-c3nc(-c4cc(C)ccc4C)co3)cc2)cc1,25
CC(C)N(CC1COc2ccccc2O1)C(=O)c1cc2n(n1)CCCNC2 (stereo not given),?
CN1CCN(C(=O)c2ccc(Cn3cncn3)cc2)C(c2ccccc2)C1 (stereo not given),0
O=C(NCCc1csc(-c2ccccc2)n1)c1cccs1,246
CC(=O)O[C@@H]1c2c(ccc3ccc(=O)oc23)OC(C)(C)[C@@H]1OC(=O)CC(C)C,-18
CN(C)C(=O)c1cccc(-c2ccc(C3[C@H]4CNC[C@@H]3N4Cc3ccccc3C(F)(F)F)cc2)c1 (stereo not given in full),-44
COc1ccc(-c2ccc3n(c2=O)C[C@@H]2[C@@H](CO)[C@H](C(=O)N4CCOCC4)N[C@H]32)cc1,-2
CC(c1cccs1)N(C)C(=O)Cc1[nH]nc2ccccc12 (stereo not given),-2
S=C1NC2=C(CCCC2)C2(CCCCC2)N1,2
CCN1CCC2(CN(Cc3cccnc3)CC23CCN(Cc2ccco2)CC3)C1=O (stereo not given),3
CCOc1ccc(S(=O)(=O)NCc2nc(-c3ccccc3)oc2C)cc1,-3
Cn1nc(CC2CCN(Cc3ccncc3)CC2)n(-c2ccccc2)c1=O,16
O=C(c1ccc(F)cc1)[C@H]1CCCN(C(=O)c2n[nH]c3c2CCC3)C1,55
CCN(C(=O)c1nc2c(s1)CCCN2C)C(C)C,37
Cc1c(C(=O)N2CCCCC2)oc2ccc3c(c12)C(O)CC1(CCCCC1)O3 (stereo not given),-112*
Cc1cc(C2CCC2)nc(N2CCc3nc(N)sc3C2)n1,-29
CCN(CC)S(=O)(=O)c1ccc2c(c1)cc(C(=O)NCCC(C)N1CCCC1)n2C (stereo not given),-36
CC(=O)c1cc(CN2CCC3(CC2)N=C(c2ccccn2)NC3=O)cs1,10
CCOC(=O)c1cc(C)nc2c1c(=O)n(Cc1nc(-c3ccc(OC)c(OC)c3)oc1C)c(=O)n2C,-2
O=C(c1ccc(Cl)cc1Cl)n1nccc1-c1ccc(-c2ccc(F)cc2F)o1,35
CCN1CCC2(CN(S(C)(=O)=O)CC23CCN(CC2CC2)CC3)C1=O (stereo not given),-62
CN(C)CCOCC1CN(C(=O)c2cccn2C)Cc2ccnn2C1 (stereo not given),-23
CCc1cnc(N2Cc3nccn3CC(CN3CCCC3=O)C2)nc1 (stereo not given),4
CCCCN(CC)C(=O)c1cc2cccnc2n(Cc2ccc(F)cc2)c1=O,-24
COc1ccc(C(=O)Nc2ccc(-c3nc(-c4ccc(C)cc4C)co3)cc2)cc1OC,2

(list continues)
compound,Tgondii IFNg
C/C=C/c1ccc([C@@H]2[C@@H](CO)N(c3nc(CC)cs3)[C@H]2C#N)cc1,-1
C[C@@H]1CN([C@H](C)CO)C(=O)CCCn2nncc2CO[C@H]1CN(C)C(=O)Nc1ccccc1C(F)(F)F,24
Cc1ccc(C(=O)N2CCOCC3(CCN(c4ncccn4)C3)C2)o1 (stereo not given),-17
CC(C)NC(=O)c1cnc2n1CCN(c1cc(C(F)(F)F)ncn1)C2,-3
CO[C@@H](C(=O)N(C)C[C@H]1OCc2ccccc2-c2ccccc2C(=O)N([C@H](C)CO)C[C@@H]1C)c1ccccc1,-47
CCc1ccc(C(=O)NCC2CCN(Cc3cnn(C)c3)C2)cc1 (stereo not given),-1
Nc1ccc(N2CCOCC2)c(C(=O)N2CCCC2)c1,67
CCS(=O)(=O)N1CCN(c2cc(CN)nc(C)n2)CC1,1
CN1CCCN(C(=O)c2ccc3onc(-c4coc(-c5ccccc5)n4)c3c2)CC1,2
Cc1oc(-c2ccc(NC(=O)c3ccc(Cl)s3)cc2)nc1Cn1cccn1,63
CN(C)C(=O)COC[C@@H]1CC[C@H]2[C@H](CCN2CC2CC2)O1,-43
C=CCO[C@@H]1CC[C@@H]2[C@H]1OCCN2C(=O)CC1C=CCC1 (stereo not given in full),466
COc1ccccc1-c1nc(Cn2nnc(-c3nc(-c4ccc(F)cc4)no3)c2C)c(C)o1,-4
Cc1cccc(CN(Cc2ccccc2)C(=O)c2cccn3nnnc23)n1,3
C[C@H](NC(=O)[C@H]1[C@H](CO)[C@H]2Cn3c(ccc(-c4ccccc4F)c3=O)[C@@H]1N2)c1ccccc1,-4
CN(C[C@@H]1N[C@H](CO)[C@H]1c1ccccc1)C(=O)c1ccccn1,-15
CCOC(=O)N1CCC2(CC1)OC(=O)C(C)=C2C(=O)NCc1ccccc1OCC,11
O=C(Nc1ccccc1F)N1CCC2(CC1)Nc1ccccc1-n1cccc12,271
CCCC(=O)Nc1ccc2c(c1)C(=O)N(C)C[C@H](OC)[C@H](C)CN(C(=O)c1ccccn1)[C@H](C)CO2,-42
Cc1oc(-c2ccc(C(=O)NCc3ccccc3F)cc2)nc1CN1CCc2ccccc21,67
CCN(CC)C1CCN(Cc2nc(-c3ccc(C(F)(F)F)cc3)no2)C1 (stereo not given),0
COc1cc(O)c(C(=O)c2ccccc2)cc1O,8
